From PubChem
VDR inh = vitamin D3 receptor (human) inhibition; 0.93% of 400,000 active; Potency, µM, for the others: max response, negative = inhibition, hits mostly inhibitors; VDR-SRC2-3 peptide fluorescence polarization, 2 h; AID 504847; P11473; active = well fitted inhibition curve with a large enough effect; inconclusive = small, poorly fitted or top-dose-only effect, or another doubt; inactive = no such curve, though single readings can be large or run the other way; also: series mostly up to about 120 µM
Target sequence (P11473 whole entry, looked up): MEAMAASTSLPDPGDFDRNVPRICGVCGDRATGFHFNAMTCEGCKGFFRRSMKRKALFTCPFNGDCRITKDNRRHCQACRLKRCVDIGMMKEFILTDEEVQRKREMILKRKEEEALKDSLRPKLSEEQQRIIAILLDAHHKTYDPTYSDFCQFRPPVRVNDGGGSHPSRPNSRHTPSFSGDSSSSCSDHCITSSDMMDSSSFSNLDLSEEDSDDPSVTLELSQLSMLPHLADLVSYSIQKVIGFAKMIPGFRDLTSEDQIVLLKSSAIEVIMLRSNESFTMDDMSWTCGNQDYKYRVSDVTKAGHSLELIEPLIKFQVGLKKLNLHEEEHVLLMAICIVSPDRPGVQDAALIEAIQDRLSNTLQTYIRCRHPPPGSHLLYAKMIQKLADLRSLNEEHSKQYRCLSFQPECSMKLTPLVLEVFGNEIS
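After 23 nl compound addition and a short centrifugation, plates sat for 2 hours at ambient temperature; polarization of fluorescence then indicated loss of VDR binding to peptide SRC2-3.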
* = called active by the depositor; ? = inconclusive; & = joins results of further samples. % is scaled to controls: 0 for no effect and ±100 for the full control effect; potency is read from the fitted curve at half-maximal effect. Only part of the results is shown, so the mix of outcomes need not match the whole.

The opening four compounds (preview)
SMILES | VDR inh
CCOC(=O)c1nc(Nc2cc(Cl)ccc2OC)c2ccccc2n1 | -4%
CC(=O)N(C1=C(N2CCOCC2)C(=O)c2ccccc2C1=O)c1ccc(C(=O)O)cc1 | -15%
O=C(NCCc1ccccc1)C(=O)NCC(c1ccco1)S(=O)(=O)c1cccs1 (stereo unspecified) | 1%
Cc1ccc(S(=O)(=O)N(C)Cc2nc(-c3ccc(Br)cc3)no2)cc1 | -6%

The list itself (from the top)
SMILES | VDR inh
CCOC(=O)c1nc(Nc2cc(Cl)ccc2OC)c2ccccc2n1 | -4%
CC(=O)N(C1=C(N2CCOCC2)C(=O)c2ccccc2C1=O)c1ccc(C(=O)O)cc1 | -15%
O=C(NCCc1ccccc1)C(=O)NCC(c1ccco1)S(=O)(=O)c1cccs1 (stereo unspecified) | 1%
Cc1ccc(S(=O)(=O)N(C)Cc2nc(-c3ccc(Br)cc3)no2)cc1 | -6%
CCc1cccc(C)c1NC(=O)c1ccc2c(c1)CCN2S(=O)(=O)c1ccc(Cl)cc1 | 2%
COc1ccc(N2CC(C(=O)N[C@@H](C)C(=O)NC3CCCC3)CC2=O)cc1 (stereo partly specified) | 4%
Cc1ccc(C(=O)NCCc2nnc(SCC(=O)Nc3cccc(C(=O)O)c3)n2C)cc1 | 13%
Cc1cccnc1NC(=O)CCNC(=O)c1ccc(Br)cc1 | -5%
O=C(CN1CCN(C(=O)c2ccco2)CC1)Nc1cc(Cl)ccc1Cl | -1%
CN(C)c1ccc(NC(=O)CN2CCC(O)(c3ccccc3)CC2)cc1 | 9%
Cc1ccc2c(c1)[C@H]1[C@H](CO2)[C@H](c2ccccc2)[C@]2(C)C(=O)N(Cc3ccc(F)cc3)CC(=O)N12 | -19%
CCN(CC)CC(=O)Nc1ccc(-c2nc3cc(NC(=O)CN(CC)CC)ccc3o2)cc1 | 0%
O=C(C=Cc1ccccc1)c1ccc([N+](=O)[O-])cc1 | 10µM*
CN(C)CCCNC(=O)C[C@H]1C[C@H](C(=O)N2CCOCC2)[C@@]2(C)c3[nH]c4cc(-c5ccco5)ccc4c3CCN2C1=O | 12%
CC1(C)Cc2c(C#N)c(N3CCN(C(=O)c4ccccc4)CC3)nc(Cc3ccccc3)c2CO1 | 5%
O/N=C/c1cn(-c2ccccc2)nc1-c1ccccc1 | 0%
CCc1ccc(C2c3[nH]c4ccccc4c3CCN2C(=O)CN2CCN(CC)CC2)cc1 (stereo unspecified) | 3%
COC(=O)Nc1ccc(S(=O)(=O)N2CCCC(C(=O)O)C2)cc1 (stereo unspecified) | 2%
CCOc1ccc(S(=O)(=O)Nc2ccc(OC)c(Cl)c2)c2cccnc12 | 3%
C/C(CC1(O)C(=O)Nc2ccccc21)=N\O (stereo unspecified) | -4%
Cc1oc(-c2ccc(Cl)cc2)nc1CS(=O)CC(=O)NC(C)c1ccccc1 (stereo unspecified) | -12%
CC(CCc1ccccc1)NC(=O)COC(=O)c1cccc(N(C)C)c1 (stereo unspecified) | 7%
O=C(c1cccc(S(=O)(=O)N2CCN(c3ccc(F)cc3)CC2)c1)N1CCN(c2ccccc2O)CC1 | 12%
Cn1c(NCc2c(O)ccc3ccccc23)nc2ccccc21 | 12%
C[C@H](CO)N1C[C@H](C)[C@@H](CN(C)S(=O)(=O)c2cn(C)cn2)Oc2ccc(NC(=O)NC3CCCCC3)cc2C1=O | -17%
COc1ccc(-c2cc(C(F)(F)F)nc(-n3nc(C(F)(F)F)cc3C)n2)cc1 | -5%
CCOC(=O)c1c(C)[nH]c(C(=O)CC(=O)OC)c1C | -6%
CCOC(=O)Cc1nnc(NC(=O)C23CC4CC(CC(C4)C2)C3)s1 | 4%
COc1ccc(N2CCN(c3nc(-c4cccs4)nc4ccccc34)CC2)cc1 | -18%
C/C(=N\Nc1nc(C(=O)O)cs1)c1ccccc1 | 8%
O=C(COc1ccc(Cl)cc1)Nc1cccc(-c2ccc3nncn3n2)c1 | -10%
CC(=O)Cc1nsc(NC(=O)c2ccc(-c3ccc(F)cc3)o2)n1 | -1%
CN(C)c1ccc(NC(=O)C2C3C=CC(C3)C2C(=O)O)cc1 (stereo unspecified) | ?
COc1ccc(N(C(=O)c2ccco2)S(=O)(=O)c2ccccc2)cc1 | 4%
CCCCNC(=O)O[C@@H]1C[C@H]2CCCC(=O)N3CC[C@@H](C1)[C@@H]23 | -5%
CC(=O)CC1=NC(C)(C)Cc2ccccc21 | -11%
COc1ccc2[nH]c3c(c2c1)CCN1C(=O)C(CC(=O)NC(C)(C)C)C[C@H](C(=O)N2CCOCC2)[C@@]31CCC1CCCC1 (stereo partly specified) | -13%
Cn1c(N2CCN(C(c3ccccc3)c3ccccc3)CC2)nc2ccccc21 | -12%
O=C(Nc1nccs1)c1ccc([N+](=O)[O-])cc1 | 2%
CN1CCN(S(=O)(=O)c2ccc(Nc3cccc(Cl)c3)c([N+](=O)[O-])c2)CC1 | 0%
S=C1NC2(CCCCCC2)N=C1c1ccccc1 | -10%
O=C(COc1ccccc1[N+](=O)[O-])N(C1CCCCC1)C1CCS(=O)(=O)C1 (stereo unspecified) | 1%
O=S(=O)(c1ccc(SCCO)nc1)N1CCCC1 | 0%
CCOc1ccc(NC(=O)CN(C)C(=O)C2CC(=O)N(c3ccc4c(c3)OCCO4)C2)cc1OCC (stereo unspecified) | -25%
CCC(=O)OCCn1c(Br)nc2c1c(=O)[nH]c(=O)n2C | -11%
CNC(=S)N1CCN(c2nc(-c3ccc(F)cc3)cs2)CC1 | -5%
Cc1ccc(N=c2c([N+](=O)[O-])nn(-c3ccc4c(c3)OCCO4)n2O)cc1F | -8%
O=C(Nc1c(Cl)cccc1Cl)c1cc(-c2cccc(O)c2)on1 | -10%
O=C(c1cc2ncc(CCCl)cn2n1)N1CCCCCC1 | -12%
O=C(Nc1cccc(NC(=O)c2ccco2)c1)c1ccc([N+](=O)[O-])cc1 | -8%
More entries:
SMILES | VDR inh
CCCN1CCC(=O)N([C@H](CSc2ccc(Br)cc2)c2ccccc2)CC1 | 12%
O=C(CSc1ccccc1)Nc1nnc(COc2ccc(Cl)cc2)s1 | 40µM*
COC(=O)c1ccccc1CON1C(=O)C(C)(C)N(OCc2ccccc2C(=O)OC)C(=O)C1(C)C | 1%
COc1ccc2[nH]c3c(c2c1)CCNC3=O | 3%&-4%
N#Cc1c(SCc2c(Cl)cccc2Cl)nc(N)[nH]c1=S | ?
Cn1c(-c2ncc(F)cc2F)cc2onc(-c3c(F)cccc3Cl)c2c1=O | -10%
CCN(CC)S(=O)(=O)c1ccc(N=Nc2c(C)[nH]n(C(N)=S)c2=O)cc1 | -15%
O=C(Cn1nnc(-c2ccc3c(c2)OCO3)n1)NCc1ccccc1 | -4%
CS(=O)(=O)N(CC(=O)NCc1ccco1)c1ccc2c(c1)OCO2 | 2%
Cc1ccc(O)c(NC(=O)c2cc(C)no2)c1 | 4%
CCOC(=O)c1[nH]c(C=O)c(C(=O)OCC)c1C | -4%
CCOc1ccc(S(=O)(=O)n2nc(C)cc2C)c2ccccc12 | 16%
C=CCNC(=O)/C(=C\c1ccc([N+](=O)[O-])cc1)NC(C)=O | -7%
CCCn1c(C)cc(C(=O)COc2ccc(S(=O)(=O)N(CC)CC)cc2[N+](=O)[O-])c1C | -4%
CC(C)C(=O)Nc1cccc(C(=O)Nc2nncs2)c1 | 1%
CCNC(=O)CC1C(=O)N(c2ccccc2)C(=O)N1CCC(C)C (stereo unspecified) | -12%
CCOc1ccc(S(=O)(=O)c2cn(Cc3ccc(C)cc3)c3ccc(OC)cc3c2=O)cc1 | -10%
Cc1ccc(Oc2nccc(-c3ccc(Cl)cc3)n2)cc1 | 13%
Cc1ccccc1NC(=O)CSc1nc2c(c(=O)n(C)c(=O)n2C)n1Cc1ccccc1F | -9%
COCCn1c(=O)[nH]c2cc(C(=O)N3CCN(c4ccc(F)cc4)CC3)ccc2c1=O | 3%
CCN(CC)C(=S)Nc1ccc(Cl)c(Cl)c1 | ?
CS(=O)(=O)N(CC(=O)N1CCN(c2ccccc2)CC1)c1ccccc1Cl | 8%
COc1ccc(CNC(=O)Cc2c(C)c3c(cc(C)c4c(C)coc43)oc2=O)cc1 | 7%
CC(=O)N1CCC2(CC1)CC(=O)c1cc(OCC(=O)NCc3ccco3)ccc1O2 | -22%
O=C(NC(=S)Nc1ccccn1)c1ccc([N+](=O)[O-])cc1 | -13%
C=CCn1c(CNc2ccc(C)cc2)nnc1SCC(=O)N/N=C/c1ccc(O)cc1O | -9%
Cc1ccc(CNC(=O)CCc2c(C)c3cc4c(C)coc4cc3oc2=O)cc1 | 13%
O=[N+]([O-])c1ccc(N2CCN(c3cccc(Cl)c3)CC2)cn1 | -1%
COc1ccc(C(=O)/C=C/c2ccccc2F)c(OC(=O)c2ccc([N+](=O)[O-])cc2)c1 | ?
NC(=O)CCN1CCCCC1 | -6%
CCOc1ccc(-c2cc3nc(C4CCN(C(=O)OC(C)(C)C)CC4)c(C(=O)Nc4cccc(Cl)c4C)cn3n2)cc1 | -7%
C#CC1(O)CCCC2C3CCC4CC(OC(C)=O)CCC4(C)C3C(=O)CC21C (stereo unspecified) | -9%
Cc1ccc(CNS(=O)(=O)c2cc(C(=O)Nc3cccc(C(F)(F)F)c3)ccc2F)cc1 | 8%
COC(=O)C1SCC2C(=O)N(Cc3ccccc3)CC(=O)N21 (stereo unspecified) | 2%
CCOc1ccc2ncc(S(=O)(=O)c3ccccc3)c(N3CCN(c4ccc(OC)cc4)CC3)c2c1 | 8%
O=c1cc(CSc2ccc(Cl)cc2)nc(N2CCCCC2)[nH]1 | -7%
CCN1CCN(CCNC(=O)CCc2c(C)c3c(C)nn(-c4ccccc4)c3n(C)c2=O)CC1 | 11%
Cc1ccn(CC(=O)N2CCCC(N3CCN(c4ccccc4F)CC3)C2)n1 (stereo unspecified) | 0%
CCOC(=O)[C@@H]1[C@H]2COc3cc(OC)ccc3[C@H]2N2C(=O)N(c3ccc(C)cc3)C(=O)[C@@]12C | -2%
O=C(Nc1ccccc1)n1cc(-c2ccccn2)c(N2CCOCC2)n1 | -13%

Next part; it opens with the five that closed the last part.
SMILES | VDR inh
O=c1cc(CSc2ccc(Cl)cc2)nc(N2CCCCC2)[nH]1 | -7%
CCN1CCN(CCNC(=O)CCc2c(C)c3c(C)nn(-c4ccccc4)c3n(C)c2=O)CC1 | 11%
Cc1ccn(CC(=O)N2CCCC(N3CCN(c4ccccc4F)CC3)C2)n1 (stereo unspecified) | 0%
CCOC(=O)[C@@H]1[C@H]2COc3cc(OC)ccc3[C@H]2N2C(=O)N(c3ccc(C)cc3)C(=O)[C@@]12C | -2%
O=C(Nc1ccccc1)n1cc(-c2ccccn2)c(N2CCOCC2)n1 | -13%
CC1CCCC(N2CCN(C(=O)c3cccc(F)c3)CC2)C1 (stereo unspecified) | 22%
CCOc1ccc2cc(-c3nnc(Nc4ccc(C)cc4)s3)c(=O)oc2c1 | -12%
O=Cc1ccc(O)c2ncccc12 | 3%
CC(C)NC(=O)C1CCN(C2CCN(C(=O)/C=C/c3cccs3)CC2)CC1 | -1%
Cc1ccccc1OCc1nc2c3cnn(-c4ccccc4Br)c3ncn2n1 | -4%
COCc1cc(C)nc(SCC(=O)Nc2cccc(C)c2C)c1C#N | 8%
CCCCc1ccc(/C(C)=N/Nc2cc(N3CCOCC3)nc(C)n2)cc1 | -26%
CC(C)c1ccc(S(=O)(=O)N2CCN(CC(=O)Nc3ccc4c(c3)OCO4)CC2)cc1 | -13%
COc1ccc(NC(=O)CN2C(=O)CCn3nc(-c4cccn4C)cc32)cc1 | 4%
COc1ccc(CN2CCN(c3cccc(C)c3C)CC2)cc1OC | -13%

Five entries from above, ordered by their value in VDR inh, highest first:
SMILES | VDR inh
CC1CCCC(N2CCN(C(=O)c3cccc(F)c3)CC2)C1 (stereo unspecified) | 22%
CC(C)NC(=O)C1CCN(C2CCN(C(=O)/C=C/c3cccs3)CC2)CC1 | -1%
Cc1ccccc1OCc1nc2c3cnn(-c4ccccc4Br)c3ncn2n1 | -4%
COc1ccc(CN2CCN(c3cccc(C)c3C)CC2)cc1OC | -13%
CCCCc1ccc(/C(C)=N/Nc2cc(N3CCOCC3)nc(C)n2)cc1 | -26%

(more compounds)
SMILES | VDR inh
COc1cc(C(=O)N/N=c2/sc3ccccc3n2C)cc(OC)c1OC | 9%
O=C1NC(=S)N/C1=C/c1cccc2ccccc12 | 13%
O=C(c1ccco1)N1CCN(C(=O)c2ccccc2OC(=O)C23CC4CC(CC(C4)C2)C3)CC1 | -11%
CC1Cc2ccccc2N1S(=O)(=O)c1cccs1 (stereo unspecified) | -3%
COc1ccc(C(=O)c2c3ccc(OC)cc3[n+]([O-])n2Cc2ccc(C(N)=O)cc2)cc1 | -6%
CCOC(=O)C(C)On1c(-c2cccc(Cl)c2)nc2ccc([N+](=O)[O-])cc21 (stereo unspecified) | 1%
Cc1cc(NC(=O)CSc2nnc(Nc3ccccc3)s2)no1 | -16%
O=C(CNC(=O)C1CCCCC1)OCC(=O)c1ccc(F)cc1 | -9%&6%
Cc1ccc(S(N)(=O)=O)cc1NC(=O)C1CC2CCC1C2 (stereo unspecified) | -10%
O=C(c1ccccc1NS(=O)(=O)c1cccc2cccnc12)N1CCOCC1 | 4%
Cc1ccc(Nc2nnc(SCC3CCCCO3)s2)cc1 (stereo unspecified) | -13%
C=CCc1c(C)[nH]c2c(OC)cccc2c1=S | 1%
C[C@@]12C(=O)N(c3ccc(Cl)cc3)C(=O)N1[C@@H]1c3ccccc3OC[C@@H]1[C@H]2c1ccccc1 | 13%
O=Cc1cn(CCC(=O)O)nc1-c1cccc(Br)c1 | -18%
CCOC(=O)N1CCC(N2Cc3cccc(C(=O)NC(C)c4ccc5c(c4)OCCO5)c3C2=O)CC1 (stereo unspecified) | -15%
O=C(CCN1CCCCCC1)Nc1cccc(Cl)c1 | 7%
CCN(CC)C(=O)C1CCCN(Cc2nc(-c3cccs3)no2)C1 (stereo unspecified) | 4%
N#CC1=C(N)Oc2cc(O)c(Cl)cc2C1c1cccnc1 (stereo unspecified) | -24%
O=C(/C=C/c1ccco1)NC(=S)Nc1ccccc1 | ?
